From PubChem
StopGo FLuc – FMDV 2A StopGo reporter, firefly signal; HEK cells with a luciferase reporter of 2A StopGo recoding; Potency, µM (highest dose often 57.5 µM), inactives show top-dose signal change, negative = less light; actives 0.23% (n = 120,000); AID 1745856; active = well fitted falling curve with a large enough effect; inconclusive = small, poorly fitted or top-dose-only effect; inactive = no such curve, though single readings can be large or run the other way; note: nearly all actives have a fitted effect of over 60% in size; overnight with compound
2A Renilla – lowers the Renilla signal of an FMDV 2A StopGo reporter; HEK cells with a luciferase reporter of 2A StopGo recoding; Potency, µM (titrated, usually from 57.5 µM), without a hit: top-dose signal change, negative = less light; actives 0.32% (n = 120,000); active means well fitted falling curve with a large enough effect; inconclusive means small, poorly fitted or top-dose-only effect; inactive means no such curve, though single readings can be large or run the other way; note: nearly all actives have a fitted effect of over 55% in size; overnight with compound
Starred values were filed as active, the others as inactive; ? = inconclusive; & = joins results of further samples; [ ] = another dose, or the depositor's remark. % is set by controls: 0 for no effect and ±100 for the full control effect; potency is the fitted concentration of half-maximal effect.

SMILES	StopGo FLuc	2A Renilla
O=C(NCc1ccc2c(c1)OCO2)c1n[nH]nc1Nc1ccc(Cl)cc1	-9%	-8%
CCOCCOC(=O)c1nc2ccccc2nc1Nc1cccc(C)c1C	19%	-2%
O=[N+]([O-])c1ccc(C(c2sc3nc(-c4ccco4)nn3c2O)N2CCN(Cc3ccccc3)CC2)cc1 (centres undefined)	-13%	0%
COCCn1c(-n2nc(C)cc2C)nc2c1c(=O)n(Cc1cc(C)ccc1C)c(=O)n2C	-5%	-7%
Cc1ccc(C)c(C(=O)Nc2ccc(-c3nc4ccc(C)cc4s3)cc2)c1	31%[activator]	-4%
CCOc1ccc(-n2cc(-c3ccccc3)c3c(Nc4cccc(F)c4)ncnc32)cc1	-12%	-8%
CCC(=O)Nc1ccccc1C(C)(C)C	?	-3%
N=c1n(CCO)c2ccccc2n1Cc1ccccc1F	4%	-11%
N#Cc1nc(-c2ccc(S(=O)(=O)N3CCOCC3)cc2)oc1N1CCCCCC1	-15%	16%
CCC1CCCCN1S(=O)(=O)c1ccc2c(c1)CCCN2C(C)=O (centres undefined)	-7%	71%[activator]
COc1ccc(C(NC(=O)NCc2ccccc2)c2ccc(OC)cc2)cc1	-5%	3%
COc1cc(-c2noc(-c3ccc(S(=O)(=O)NC4CC4)o3)n2)ccc1OC(C)C	?	?
COc1ccc(C(=O)Nc2ccc3sc(NC(=O)C(C)C)nc3c2)cc1OC	?	?
Cc1ccccc1NC(=O)c1c(NC(=O)c2cccs2)sc2c1CCC(C)C2 (centres undefined)	-14%	-6%
Cc1ccc2oc(-c3ccc(Cl)cc3)c(O)c(=O)c2c1	97%[activator]	14%
O=C(c1cccc(S(=O)(=O)Nc2cc(C(F)(F)F)ccc2Cl)c1)N1CCC1	8%	72%[activator]
CN(C)CC#CC(O)(c1ccccc1)C1(C)CCCC1 (centres undefined)	2%	-4%
CC(C)(C)c1ccc(-c2nc(C#N)c(NCCCn3ccnc3)o2)cc1	41%[activator]	22%
Cc1c(NS(=O)(=O)c2ccccc2)cc(C(C)C)c(O)c1S(=O)(=O)c1ccc(Cl)cc1	-39%	127%[activator]
COc1ccccc1-c1noc(CCCC(=O)Nc2ccc(S(=O)(=O)N3CCC(C)CC3)cc2)n1	?	?
Cn1c(=O)c2c(nc(Oc3ccc(F)cc3F)n2Cc2ccccc2F)n(C)c1=O	-5%	-7%
CCOC(=O)CNC(=O)Nc1cc(C(=O)NCc2ccccc2OC)ccc1N1CCCC1	22%&5%	7%&6%
COc1ccc(NC(=O)Nc2cc(-c3cn4cccnc4n3)ccc2C)cc1	31%[activator]	-5%
CCn1nc(C(=O)N2CCN(CC(=O)NC3CC3)CC2)c2ccccc2c1=O	-1%	2%
CC1=C(C(=O)Nc2ccc(C)cc2C)C(c2ccc(Cl)cc2)n2nc(C(=O)OC(C)C)nc2N1 (centres undefined)	6%&-21%	4%&-22%
CCc1c(C(=O)Nc2ccc3c(c2)Cc2ccccc2-3)cnn1-c1ccc(OC)nn1	-1%	-2%
CCN1C(=O)c2ccccc2Sc2ccc(NC(=O)COc3ccc(Cl)cc3)cc21	-8%	-2%
CCCC(=O)Oc1c(Sc2ccc(C)cc2)c(C)nn1-c1ccccc1	?	-3%
Cc1ccc(Cl)cc1N1CCN(c2nc3ccccc3c3nc(-c4cccnc4)nn23)CC1	-5%	-8%
CCCC12CN(C(=O)CC)CC(C)(CN(C(=O)CC)C1)C2=O	-4%	-2%
CC(=O)Nc1ccc(CNC(=O)c2sccc2C)cc1	18%	0%
CCCn1c(=O)c2sccc2n2c(CCCC(=O)Nc3cccc(CC)c3)nnc12	-7%	18%
CC1C/C(=N\NC(=O)C2CC2)CC(C)(C)C1 (centres undefined)	17%	10%
COc1ccc(-c2cc3ccc(OCCN4CCN(C)CC4)cc3oc2=O)cc1	166%[activator]	-1%
COC(=O)c1ccc(Nc2ncnc3c2cnn3-c2ccccc2)cc1	53%[activator]	-9%
Cc1ccc2c(=O)cc(C(=O)N(Cc3ccc(C(C)C)cc3)C3CCS(=O)(=O)C3)oc2c1C (centres undefined)	-15%	1%
O=C(c1ccn(COc2ccccc2)n1)N1CCN(Cc2ccc(Cl)c(Cl)c2)CC1	-20%	-17%
CCN1CCN(c2ccc(NC(=O)c3cccc(S(=O)(=O)NCc4ccco4)c3)cc2)CC1	-1%	62%[activator]
NS(=O)(=O)c1ccc(Nc2ccc([N+](=O)[O-])cc2[N+](=O)[O-])cc1	-9%	-19%
COc1ccc(OCC(=O)NC2CCCN(c3ncccn3)C2)cc1 (centres undefined)	22%	4%
CC(C)N(c1ccccc1)c1ccc(NC(=O)c2cc(=O)c3ccccc3o2)cc1	-24%	-2%
COc1ccccc1C(=O)NCC(c1cccnc1)N1CCc2ccccc2C1 (centres undefined)	-7%	-5%
CN(CCCC(=O)OC(C)(C)C)C(=O)c1ccccc1Cl	13%	8%
Cc1cccc(OCCn2c(-c3ccc(Cl)cc3)nc3ccccc3c2=O)c1	68%[activator]	19%
Cc1csc(NC(=O)CSc2c3c(nc4cc(Cl)ccc24)CCCC3)n1	22%	8%
CCOCCCNCc1ccc(OC)cc1	7%	0%
CC(=O)c1cccc(NC(=O)CCSC2CCc3ccccc3NC2=O)c1 (centres undefined)	-28%	-27%
CCn1cc(C(=O)NCCc2ccccc2)c(=O)c2cc(S(=O)(=O)N3CCOCC3)ccc21	-16%	-12%
CCC1(C)C(C#N)C(=O)NC(=O)C1C#N (centres undefined)	8%	9%
CN(Cc1ccccc1)C(=O)COC(=O)c1cc(=O)c2ccccc2o1	-1%	-6%
Cc1nn(C)c2c1c(-c1ccccc1)cc(=O)n2Cc1ccccc1C#N	-3%	-11%
CN(Cc1ccccc1)C(=O)Nc1ccc2oc(C3CC3)nc2c1	89%[activator]	4%
O=C(Cn1nc(-c2ccc(F)cc2)ccc1=O)NCc1cccnc1	42%[activator]	-7%
Cc1oc(-c2ccccc2)nc1C(=O)OCC(=O)NC(=O)NCC(C)C	18%	4%
COc1ccccc1N1CCN(C(=O)c2nn(-c3ccc(C)cc3)c(=O)n(C)c2=O)CC1	-11%	-14%
Cc1ccc(N2C(=O)N(Cc3ccccc3)c3ccccc3S2(=O)=O)c(C)c1	1%	17%
Cc1cccc(N2CCN(C(=O)C3CCCN(C(=O)c4cc5sccc5n4C)C3)CC2)c1C (centres undefined)	-11%	-8%
Cn1nc(C(=O)N2CC(C(=O)N3CCOCC3)Oc3ccccc32)c2ccccc2c1=O (centres undefined)	14%	6%
C=CCNC(=O)c1ccc(COc2ccc(Cl)cc2)cc1	145%[activator]	-4%
COc1ccc(C)cc1NC(=O)CN(c1cc(C(F)(F)F)ccc1Cl)S(C)(=O)=O	-1%	30%[activator]
Further entries follow:
SMILES	StopGo FLuc	2A Renilla
CN(CCCNC(=O)c1cccnc1)CC(F)(F)F	1%	-9%
CCN(Cc1ccccc1)C(=O)c1cc2ccc(OC)cc2[nH]1	0%	50%[activator]
CCOc1ccc(CNC(=O)c2ccc(-c3nc(CSc4ccc(C)cc4)c(C)o3)cc2)cc1	-20%	-6%
Cc1ccc(NC(=O)N2CC=C(c3c[nH]c4ccccc34)CC2)cc1Cl	50%[activator]	-6%
Cc1cnc(NC(=O)CCc2ncc(-c3ccc(C)c(C)c3)o2)s1	0%	-8%
COc1ccccc1-c1nc2cc(NC(=O)c3ccccc3Cl)ccc2o1	51%[activator]	37%[activator]
COc1cc2c(cc1NC(=O)COc1cc(C)ccc1C)oc1ccccc12	33%[activator]	-4%
Cc1cccc(C(=O)N2CCN(CCNC(=O)C(=O)Nc3ccccc3)CC2)c1	51%[activator]	21%
Cc1nnc(N2CCN(c3ccccc3F)CC2)c2c1nnn2Cc1ccccc1Cl	5%&-16%	-7%&-4%
COc1ccc(-c2coc3cc(OCC(=O)O)ccc3c2=O)cc1OC	-4%	-11%
CCc1ccc(NC(=O)CN2C(=O)C(c3ccc(C)cc3)=NC23CCCCC3)cc1	1%	20%
Cc1ccccc1OCc1nc(-c2ccccc2OCC(=O)N2CCCC(C)C2)no1 (centres undefined)	50%[activator]	-5%
COc1ccccc1NC(=O)c1oc2ccccc2c1NC(=O)c1ccccc1C(F)(F)F	35%[activator]	-9%
COc1cccc(OC)c1C(=O)Nc1cccc(-c2nc3cc(Cl)ccc3o2)c1	96%[activator]	1%
CCCCCCCCCSCc1ccc(C(=O)O)o1	9%	4%
CC(=O)N1CCCc2cc(S(=O)(=O)N3CCN(c4ccccc4F)CC3)ccc21	?	?
Cc1nc2ccn(Cc3ccccc3)c(=O)c2cc1C(=O)N1CCN(c2ccc(F)cc2)CC1	-15%	-12%
CCOC(=O)/C(C#N)=C/c1ccc(OC)c(COCC(F)(F)C(F)F)c1	22%	8%
O=C(Nc1cc(Cl)cc(Cl)c1)c1ccc(F)c(S(=O)(=O)N2CCc3ccccc32)c1	-8%	-3%
C[N+](C)(C#CCc1ccccc1)C/C(Cl)=C(\Cl)c1ccccc1	-10%	-20%
Cc1ccc(C(C)NC(=O)Cc2c(C)[nH]c3ccccc23)o1 (centres undefined)	-11%	-9%
Cc1ccc(C(=O)NC(c2nnc(SCC(=O)c3ccccc3)n2C)C(C)C)cc1 (centres undefined)	7%	21%
Cn1nnc2c(NCc3ccc(Cl)cc3)ncnc21	4%	7%
CCS(=O)(=O)NCCC(c1ccccc1)c1ccccc1	2%	0%
O=S(=O)(NCC(c1ccco1)N1CCN(c2ccc(F)cc2)CC1)c1cc(F)ccc1F (centres undefined)	-13%	-9%
COC(=O)/C(=C\c1ccc(OC(F)(F)F)cc1)NC(=O)c1ccccc1	10%	-4%
CC(C)c1ccc(C(C)NC(=O)c2cccc(N(C)C)c2)cc1 (centres undefined)	4%	20%
COc1ccc(C)cc1NC(=O)Cn1nc(C(N)=O)c2ccccc2c1=O	-2%	-4%
Cc1ccc(NC(=O)Cn2c(=O)n(Cc3ccco3)c(=O)c3sc4ccccc4c32)c(C)c1	-8%	-7%
CC(C)n1ncc2c(C(=O)Nc3ccccc3)c3c(nc21)CCC3	0%	45%
COCCNC(=O)CSc1nc2cc3c(cc2c(=O)n1CCCCCC(=O)NCc1ccc(OC)cc1)OCO3	0%	11%
CNC(=S)NNC(=O)c1ccccc1C	2%	-6%
N#CCCNC(=O)CCl	5%	-20%
CCCCCn1c(NCCC)nc2c1c(=O)[nH]c(=O)n2C	-2%	-7%
CC1CCc2nc(NC(=O)Cc3ccc(Cl)cc3)sc2C1 (centres undefined)	59%[activator]	-16%
COc1cc(NC(=O)CSc2nc3nc(C)c(Cc4ccccc4)c(C)n3n2)cc(OC)c1OC	5%&-5%	7%&8%
COc1ccc(NC(=O)Cn2cc(S(=O)(=O)N3CCC(C)CC3)c3ccccc3c2=O)cc1Cl	6%	145%[activator]
CCCOc1ccccc1C1C(C(=O)Nc2ccccc2)=C(C)Nc2nnnn21 (centres undefined)	-16%	?
CN(C)C(=O)C1CCC(C)(C(=O)O)C1(C)CI (centres undefined)	7%	3%
COc1ccc(C(=O)OCc2nc(-c3ccc(F)cc3)no2)cc1S(=O)(=O)N1CCCC1	9%	-7%
CS(=O)(=O)Oc1ccc2c(=O)c(-c3ccc(Cl)cc3)coc2c1	216%[activator]	19%
Cc1cccc(NC(=O)c2cc3c(s2)CCC3)c1C	145%[activator]	8%
Cc1coc2ccccc2c1=O	-3%[11.5 µM]	-2%
Oc1ccc(Cl)cc1C=Nc1cc(C(F)(F)F)ccc1Oc1ccccc1	7%	-8%
Cc1ccc(NC(=O)CSc2ncc(-c3ccc(F)cc3)o2)c(C)c1	4%	-7%

A portion of the library. The share of hits here may be higher or lower than overall.
